# TRPML1 inh – inhibitors of human TRPML1 channel; Q9GZU1; TRPML1-inducible cells, Ca2+ dye fluorescence, FDSS; hits give low values; inhibition of EC80 agonist-evoked calcium signal; activity change, negative = inhibition, % (no concentration beside the values); hit rate 0.02% among 390,000; in the data active means activity change below about -50%; inconclusive means about -30% to -50%; inactive means above about -30%;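 also: stimulus is agonist 54-4 at its EC80 concentration; % is scaled to controls: 0 for no effect and ±100 for the full control effect; compound concentration not given in the record; the text of the record puts the active cut at -80%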
# Target sequence (Q9GZU1 whole entry, looked up): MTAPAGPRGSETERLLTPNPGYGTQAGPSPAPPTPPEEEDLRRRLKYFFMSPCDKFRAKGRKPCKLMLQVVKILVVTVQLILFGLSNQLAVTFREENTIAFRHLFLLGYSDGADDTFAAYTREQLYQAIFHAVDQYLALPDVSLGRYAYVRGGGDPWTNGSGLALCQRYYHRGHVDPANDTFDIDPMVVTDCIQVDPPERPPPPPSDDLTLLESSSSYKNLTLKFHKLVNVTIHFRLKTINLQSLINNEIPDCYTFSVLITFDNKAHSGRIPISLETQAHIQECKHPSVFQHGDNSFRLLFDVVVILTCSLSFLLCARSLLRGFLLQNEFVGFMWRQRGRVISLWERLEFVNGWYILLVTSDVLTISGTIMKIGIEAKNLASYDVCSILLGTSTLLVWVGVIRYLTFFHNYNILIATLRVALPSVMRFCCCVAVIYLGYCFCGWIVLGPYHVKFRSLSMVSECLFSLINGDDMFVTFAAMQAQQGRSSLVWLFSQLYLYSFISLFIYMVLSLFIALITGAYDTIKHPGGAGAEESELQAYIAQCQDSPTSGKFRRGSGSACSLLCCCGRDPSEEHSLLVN
#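 TRPML1-DL cells, Tet-induced overnight (~16 h, 37 °C) at 1,500 cells/well, were loaded with Ca8 no-wash dye plus quencher for 45-90 min at room temperature. Compounds were pinned during FDSS kinetic reading; agonist 54-4 at EC80 (4 uM final) then added.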
# Menin MLL FP FL – displaces fluorescein MLL peptide from human menin; Fluorescence polarization, fluorescein-MLL peptide displacement from menin; FP activity change, % at 61.4 µM; 290,000 tested, under 10 active; inconclusive = falling polarisation curve, or a change in total fluorescence; inactive = total fluorescence flat and polarisation flat or rising; no compound was filed as active; the % refers to the polarisation; negative = inhibition;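 also: % of control where 0% means no effect; inhibitors lower the polarisation; unlabelled MLL peptide was the positive control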
# ClpP mod – qHTS Assay for Activators of ClpP. ATP-dependent Clp protease proteolytic subunit (Bacillus subtilis (strain 168)), P80244. purified B. subtilis ClpP, FRET peptide cleavage, 20 min. Potency, µM (series often up to 57.5 µM), without a hit: top-dose activity change, negative = active. hit rate 1.9% among 340,000. AID 651965, 2013; active = well fitted falling curve with a large enough effect; inconclusive = small, poorly fitted or top-dose-only effect; inactive = no such curve, though single readings can be large or run the other way; also: potency is read from the fitted curve at half-maximal effect; the source files actives as falling curves though it sought activators and does not explain the sign; nearly all actives have a fitted effect of over 65% in size; many hits overshoot -100%
# Target sequence (P80244 whole entry, looked up): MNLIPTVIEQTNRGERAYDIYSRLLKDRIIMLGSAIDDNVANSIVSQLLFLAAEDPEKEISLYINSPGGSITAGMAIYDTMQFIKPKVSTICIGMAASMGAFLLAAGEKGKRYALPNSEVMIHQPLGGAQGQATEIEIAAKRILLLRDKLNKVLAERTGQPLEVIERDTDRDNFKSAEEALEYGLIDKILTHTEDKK
#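 FRET quenching reversal measured ClpP activation: 10 microg/mL B. subtilis ClpP at pH 8 with the FRET-FV decapeptide, read at 430 nm after 320 nm excitation. The 20-min minus 0-min signal was scaled between DMSO/no-enzyme wells and ADEP (5.8 microM final).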
# Sfp inh – inhibitors of Bacillus subtilis Sfp phosphopantetheinyl transferase. Biochemical Sfp PPTase activity, qHTS. Q9F4F7. Potency, µM, inactives show max response, negative = inhibition, most hits filed as inhibitors. hit rate 3.5% among 310,000; active = well fitted inhibition curve with a large enough effect; inconclusive = small, poorly fitted or top-dose-only effect, or another doubt; inactive = no such curve, though single readings can be large or run the other way;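 also: the enzyme is Sfp with the accession as filed and its product quenches rhodamine fluorescence; potency is read from the fitted curve at half-maximal effect; 0% = enzyme reaction without inhibitor and -100% = no enzyme wells; top concentration of the series not given in the record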
#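 Buffer: 50 mM Hepes-Na pH 7.6, 10 mM MgCl2, 0.01% Nonidet P-40, 0.01% BSA. Enzyme 15 nM, pre-exposed to compound 15 min; substrates then added and fluorescence change tracked over 30 min.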
# TRPV1 potentiator – human TRPV1 potentiation. Q8NER1. TRPV1-expressing cells, Fluo-8 calcium influx, capsaicin EC20 potentiation; host cell line not named in the record; control for the full effect not named in the record. potentiation, % at 8.33 µM. hit rate 0.02% among 320,000; active means potentiation above 80%; inconclusive means 30% to 80%; inactive means below 30%; also: 0% is about no effect
#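 TRPV1-expressing cells were cultured overnight at 35.5C and loaded with Fluo-8 calcium dye for 40 to 90 min at room temperature. After a 10 s baseline, compound was added and calcium influx was read kinetically for 3 min (ex 480/em 520 nm).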
# PINK1 expr mod – changes PINK1 expression. PINK1 immunofluorescence, high-content cytometry, 24 h. Potency, µM (doses to about 76.6 µM), for the others: top-dose activation (PINK1 increase), hits mostly activators. hit rate 0.2% among 410,000; active = well fitted activation curve with a large enough effect; inconclusive = small, poorly fitted or top-dose-only effect; inactive = flat fitted curve, though single readings scatter; cell line not stated here;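 also: potency is read from the fitted curve at half-maximal effect; % of control where 0% means no effect; nearly all actives have a fitted effect of over 65% in size; a mitochondrial uncoupler was the plate control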
#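 Stable cell line treated 24 h with compounds at 5 concentrations (CCCP controls), then fixed and immunostained for PINK1 plus nuclear and cell stains; PINK1 immunofluorescence quantified by laser-scanning microplate cytometry.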
# TRPML1 ag – agonists of human TRPML1 channel. hit rate 0.12% among 410,000. activation, % (test concentration not listed). TRPML1-expressing cells, Ca2+ dye fluorescence, FDSS; host cell line not named in the record; reference of the full effect not given here; in the data active = activation above about 50%; inconclusive = about 30% to 50%; inactive = below about 30%; also: 0% is about no effect; the text of the record puts the active cut at 80%
#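 Kinetic FDSS Ca2+ read in Tet-induced TRPML1-DL cells (ABD Ca8 dye plus quencher, 45-90 min RT loading): baseline, then compound, then 110 s agonist window; EC80 agonist 54-4 at 4uM final added afterwards for a 110 s antagonist window.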
# Numbers without * were called inactive; u = inconclusive; x = no result given.
# The first 4 compounds (preview)
SMILES,TRPML1 inh,Menin MLL FP FL,ClpP mod,Sfp inh,TRPV1 potentiator,PINK1 expr mod,TRPML1 ag
COc1ccc(N2CCN(S(=O)(=O)c3ccc4c(c3)NC(=O)C(C)S4)CC2)cc1 (configuration not stated),-9,x,x,13%,13,-0.4%,-0.1
Cc1cc(Cl)c(S(=O)(=O)Nc2ccc3c(c2)OCO3)cc1OCC(N)=O,0,-3.0,0.8%,15%,7,-1.1%,-1.0
O=C(c1cc(COc2cccc(C(F)(F)F)c2)on1)N1C[C@H]2CC[C@H]1C2,13,x,0.6%,-18%,-8,1.2%,1.4
CCS(=O)(=O)N1Cc2ccccc2CC1C(=O)Nc1nc2ccc(C)cc2s1 (configuration not stated),-7,0.7,-4.3%,-3%,u,1.8%,1.3

# The list itself (from the top)
SMILES,TRPML1 inh,Menin MLL FP FL,ClpP mod,Sfp inh,TRPV1 potentiator,PINK1 expr mod,TRPML1 ag
COc1ccc(N2CCN(S(=O)(=O)c3ccc4c(c3)NC(=O)C(C)S4)CC2)cc1 (configuration not stated),-9,x,x,13%,13,-0.4%,-0.1
Cc1cc(Cl)c(S(=O)(=O)Nc2ccc3c(c2)OCO3)cc1OCC(N)=O,0,-3.0,0.8%,15%,7,-1.1%,-1.0
O=C(c1cc(COc2cccc(C(F)(F)F)c2)on1)N1C[C@H]2CC[C@H]1C2,13,x,0.6%,-18%,-8,1.2%,1.4
CCS(=O)(=O)N1Cc2ccccc2CC1C(=O)Nc1nc2ccc(C)cc2s1 (configuration not stated),-7,0.7,-4.3%,-3%,u,1.8%,1.3
Cc1csc(NC(=O)C2C3C=CC(O3)C2C(=O)O)n1 (configuration not stated),-8,2.8,-1.5%,u,1,1.2%,-0.1
NC(=O)CSc1nnc(-c2cccnc2)n1CCc1ccccc1,-14,0.9,-0.4%,0%,-6,-0.9%,-0.3
CN(CC(=O)Nc1ccc(F)cc1)C(=O)c1ccc(-c2ccc(Cl)cc2)o1,1,0.5,-19%,4%,-14,3.4%,1.8
COC(=O)c1c(N)n(-c2ccc(OC)c(Cl)c2)c2nc3ccccc3nc12,1,x,u,x,x,-1.3%,0.0
COc1cccc(N2C(=NC(=O)CCC3CCCC3)SC3CS(=O)(=O)CC32)c1 (configuration not stated),3,1.0,0.1%,-14%,5,5.3%,0.4
CCOc1ccc(S(=O)(=O)N2CCCC(C(=O)NC3CCCC3)C2)cc1 (configuration not stated),-3,-3.9,4.5%,7%,-14,3.1%,-0.2
CCOC(=O)c1c(C)oc2nc(C)nc(NCCc3ccc(OC)c(OC)c3)c12,9,x,-0.2%,x,x,0.8%,-0.1
Cn1c(SCC(N)=O)nnc1C1CCN(C(=O)NC2CCCCC2)CC1,41,5.9,-0.7%,1%,4,-2.9%,2.1
CCN(C(=S)NCCOC)c1cccc2ccccc12,3,0.1,x,5%,-8,2.1%,0.8
COc1cc(OC)cc(Oc2ccc(S(=O)(=O)N3CCCCC3)cc2[N+](=O)[O-])c1,49,5.3,x,12%,2,6.4%,0.2
Cc1ccc(S(=O)(=O)NCC(=O)N(CC(=O)NC2CCCC2)c2ccc3c(c2)OCCO3)cc1,-14,-0.5,0.9%,13%,15,-1.7%,-0.2
O=C1CC(N2CCN(c3ccccn3)CC2)C(=O)N1CC(c1ccccc1)c1ccccc1 (configuration not stated),-1,-2.7,0.6%,-12%,5,-2.1%,2.2
Cc1ccc(S(=O)(=O)CCC(=O)OCC(=O)N(C)Cc2ccccc2)cc1,-5,x,u,x,x,0.2%,1.3
CCOCCCNC(=O)C(=O)Nc1c2c(nn1-c1ccccc1)CSC2,-1,x,-1.7%,x,x,1.7%,-0.3
c1ccc(COc2ccc(-c3cc4nc(NCCOc5ccccc5)ccn4n3)cc2)cc1,-9,x,4.4%,x,x,1.9%,0.3
O=c1[nH]c2cc([N+](=O)[O-])cc(Cl)c2c2ccccc12,-2,x,1.2%,x,x,-0.3%,-0.4
CCn1cc(C(=O)N(CCCN2CCOCC2)Cc2ccco2)c(=O)c2ccc(C)nc21,-21,-2.0,-5.0%,u,0,-2.2%,0.9
CCCCNC(=O)CCc1c(C)nc2cc(-c3ccccc3)nn2c1C,31,x,-21%,x,x,2.3%,-0.7
C#CCNC(=O)C1=C[C@@H](C)C[C@@H](OCc2ccc(CO)cc2)O1,-8,-0.5,-1.0%,11%,-9,1.5%,0.0
COc1ccc(-c2nc3ccccc3o2)cc1NC(=O)COc1ccc(C(C)(C)C)cc1,-12,x,4.8%,x,10,0.7%,1.3
Cc1ccccc1Nc1nc(-c2cccnc2)cs1,16,6.0,3.4%,-25%,7,-0.4%,-0.4
SMILES,TRPML1 inh,Menin MLL FP FL,ClpP mod,Sfp inh,TRPV1 potentiator,PINK1 expr mod,TRPML1 ag
O=C(Cc1cccc([N+](=O)[O-])c1)Nc1ccccc1,10,x,0.9%,x,x,0.8%,-0.5
C#CCn1cccc(C(=O)Nc2ccc(OC)cc2)c1=O,-1,7.8,0.4%,18%,-10,1.7%,0.0
CCOC(=O)c1ccc(N2C(=O)c3n[nH]c(-c4cccs4)c3C2c2ccc(C)cc2)cc1 (configuration not stated),-1,x,0.3%,x,x,1.8%,1.4
CN(C)c1cccc(C(=O)N2CCCC(CCC(=O)N3CCN(c4ccccn4)CC3)C2)c1 (configuration not stated),-6,x,-13%,5%,17,5.0%,-0.3
COc1ccc(C(=O)NCC(C)(C)SCc2c(C)cc(C)cc2C)cc1,11,-0.7,-0.7%,-19%,10,x,4.1
COc1ccc(N2CC(C(=O)NCc3n[nH]c(=O)c4ccccc34)CC2=O)cc1 (configuration not stated),24,x,1.6%,x,3,0.7%,-0.1
COC(=O)c1cc(OC)c(OC)cc1NC(=O)c1ccoc1C,x,24,x,10%,-1,x,x
CC1CCN(CCc2nc3cc(NS(=O)(=O)c4ccc(F)cc4)ccc3n2C)CC1,6,-5.4,-2.0%,13%,-24,-3.9%,1.7
Nc1ccc(-n2cnc3cc([N+](=O)[O-])ccc32)cc1,-5,0.8,0.9%,15%,7,3.0%,-0.7
CCOc1ccccc1-n1c(SCC(=O)N2CCCC2)nnc1-c1ccoc1C,-1,-0.7,0.4%,4%,-8,-0.1%,0.9
COc1ccc(/C=N/NC(=O)c2cc(C34CC5CC(CC(C5)C3)C4)[nH]n2)cc1O,4,2.1,-7.7%,-14%,5,3.7%,-1.1
CCN(CC)C(=O)c1cn(-c2ccccc2)nc1-c1ccc2c(c1)OCCO2,16,5.0,x,-1%,-11,1.1%,-0.9
C=CC(=O)NN(C)c1ncc(C(F)(F)F)cc1Cl,34,-0.4,-0.2%,-17%,3,0.4%,0.2
COC(=O)c1[nH]c2ccc(C)cc2c1NC(=O)NC1CCCCC1,31,2.0,u,13%,0,14%,1.5
CC1COc2c3ccccc3nn21 (configuration not stated),x,x,-5.7%,x,x,-1.0%,-0.4
CC1(C(=O)NS(=O)(=O)c2cccc(Cl)c2)CCN1C(=O)c1cccc2ccccc12 (configuration not stated),x,x,-1.7%,x,x,-0.7%,-0.4
Cc1cccc(NC(=O)CSc2nc(N)c(NC(=O)c3cccs3)c(=O)[nH]2)c1C,17,5.0,-3.9%,-10%,4,1.0%,0.0
CCn1ncc(CN2CCCC(CNC(=O)c3ccc(F)cc3)C2)c1C (configuration not stated),16,0.7,x,7%,-3,2.7%,0.2
CCOC(=O)c1c(C)[nH]c(C(=O)Cn2nnc(-c3ccccc3Cl)n2)c1C,2,3.6,0.2%,13%,-4,6.5%,1.5
CCC1(c2ccc(F)cc2)NC(=O)N(CC(=O)N2CCN(C(=O)c3cccs3)CC2)C1=O (configuration not stated),-2,x,-3.1%,x,-2,3.3%,0.4
CCOc1ccc(CNC(=O)CCCn2c(=O)c3cccn3c3ccc(F)cc32)cc1,15,x,-1.9%,x,x,0.4%,4.0
O=C(CSc1nncs1)NCCCc1ccccc1,4,0.8,x,-19%,1,-0.4%,-0.6
O=C(CSc1nc2c([nH]c3ccccc32)c(=O)n1-c1ccccc1F)NCC1CCCO1 (configuration not stated),3,x,3.2%,13%,-2,1.0%,-0.6
CCCCCCCc1c(O)nc(SCCN2CCOCC2)[nH]c1=O,-16,-0.7,-0.1%,10%,30,1.9%,0.0
CCc1ccc(NC(=O)Cn2c(SC)nc3ccccc32)cc1,9,2.1,1.1%,-20%,21,0.4%,-0.7
SMILES,TRPML1 inh,Menin MLL FP FL,ClpP mod,Sfp inh,TRPV1 potentiator,PINK1 expr mod,TRPML1 ag
COc1ccc(N2CCN(C(=O)c3cn(C4CCCC4)c(=O)c4c3c3ccccc3n4C)CC2)cc1,35,-2.3,0.8%,1%,13,-0.3%,1.5
CCN1CCc2c(sc(NC(=O)c3ccc(S(=O)(=O)N(C)CC4CCCO4)cc3)c2C(N)=O)C1 (configuration not stated),4,x,1.7%,8%,0,7.4%,0.1
O=c1cc(O)c2sc3nc(-c4cccnc4)cc(C(F)(F)F)c3c2[nH]1,5,x,-12%,-18%,-10,0.7%,0.1
Cn1c2ccc(F)cc2c2nnc(SCCN3CCOCC3)nc21,9,-4.3,1.1%,u,-14,1.1%,-0.7
COc1cccc(NC(=O)CN(C)C(=O)Cc2cccc3ccccc23)c1,7,x,-0.5%,x,2,-0.6%,-0.9
CC(=O)N1c2ccc(S(=O)(=O)N3CCCC3C(=O)NCc3ccc(Cl)cc3)cc2CC1C (configuration not stated),2,1.7,3.3%,21%,-12,0.0%,0.4
COc1ccc(C)cc1NC(=O)c1ccc2c(c1)OCO2,3,5.0,0.0%,7%,11,-1.7%,0.0
Cc1noc(C)c1S(=O)(=O)N1CCCC1C(=O)O (configuration not stated),19,5.1,x,16%,-5,-1.2%,0.9
COc1ccc(C2(C(N)=O)CCCCC2)cc1OC,10,4.1,0.1%,15%,-2,1.7%,-0.2
CC(OC(=O)CN1C(=O)c2ccccc2C1=O)C(=O)c1ccccc1 (configuration not stated),14,x,-0.1%,x,-16,1.5%,-1.3
COc1ccc(C(=O)NC2(C(F)(F)F)NC(=O)N(CCCc3ccccc3)C2=O)c(OC)c1OC (configuration not stated),4,5.0,-1.2%,32%,18,-0.6%,-0.1
O=C(c1ccc(COc2ccccc2Br)cc1)N1CCCCC1,29,2.2,1.0%,-23%,-14,3.2%,-0.2
COc1cc(/C=C/C(=O)OCC(=O)NC(=O)NC(C)C)cc(S(=O)(=O)N2CCc3ccccc32)c1OC,-15,-1.1,20µM*,10%,-23,0.9%,3.6
